Compound activity as filed in PubChem BioAssay.
Mtb betalactam: beta-lactam sensitization of Mtb H37Rv; M. tuberculosis H37Rv growth with meropenem, percent inhibition; hits of this screen are not shown here; inhibition, % at 25 µM; hit rate 0.27% among 330,000; AID 434955;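 active = about 74% or more and at least 40 points above the plate without the antibiotic, then above 30% in a dose series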;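 note: growth measured after seven days incubation then overnight dye step; 0% = bacteria only wells and 100% = bacteria with antibiotic; twin plates without the antibiotic show which effects depend on it; some results filed as inactive read as strong as hits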
YopH inh: YopH (Yersinia) phosphatase inhibition; fluorescence Ex485/Em525; inhibition, %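 (about 10 µM by stock and volumes)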; hit rate 0.16% among 140,000; AID 898;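 active = inhibition of 50% or more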;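 note: controls were vehicle for no effect and minimum signal wells for full effect; inactives centre near -20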
Mtb H37Rv: M. tuberculosis H37Rv growth inhibitors, H37Rv strain (AID 1626). M. tuberculosis H37Rv growth inhibition; higher % means a stronger effect. hit rate 0.95% among 220,000. one-dose inhibition, % at 10 µM; IC50 in µM for titrated hits;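 active = confirmed in a dose series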;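 note: bacteria incubated seven days before Alamar blue readout; 0% = bacteria only wells and 100% = bacteria with antibiotic wells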
Arbovirus anti: arbovirus infection inhibition; arbovirus infection cell-based antiviral screen; inhibition, % at 10 µM; hit rate 0.37% among 200,000;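 active = inhibition from about 30%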;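 note: bluetongue infection of BSR cells; cell survival read as ATP light after 72 h; 0% = infected wells without compound and 100% = uninfected wells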
RecA splice inh: Mtb RecA intein splicing inhibition; P9WHJ3; cell-free RecA intein splicing, fluorescence; inhibition, %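 (about 9 µM by stock and volumes)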; hit rate 0.75% among 290,000; AID 2221; in the data active = inhibition above about 30%;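 note: 0% = vehicle wells and 100% = reference inhibitor control wells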
Target sequence (P9WHJ3 whole entry, looked up, canonical isoform): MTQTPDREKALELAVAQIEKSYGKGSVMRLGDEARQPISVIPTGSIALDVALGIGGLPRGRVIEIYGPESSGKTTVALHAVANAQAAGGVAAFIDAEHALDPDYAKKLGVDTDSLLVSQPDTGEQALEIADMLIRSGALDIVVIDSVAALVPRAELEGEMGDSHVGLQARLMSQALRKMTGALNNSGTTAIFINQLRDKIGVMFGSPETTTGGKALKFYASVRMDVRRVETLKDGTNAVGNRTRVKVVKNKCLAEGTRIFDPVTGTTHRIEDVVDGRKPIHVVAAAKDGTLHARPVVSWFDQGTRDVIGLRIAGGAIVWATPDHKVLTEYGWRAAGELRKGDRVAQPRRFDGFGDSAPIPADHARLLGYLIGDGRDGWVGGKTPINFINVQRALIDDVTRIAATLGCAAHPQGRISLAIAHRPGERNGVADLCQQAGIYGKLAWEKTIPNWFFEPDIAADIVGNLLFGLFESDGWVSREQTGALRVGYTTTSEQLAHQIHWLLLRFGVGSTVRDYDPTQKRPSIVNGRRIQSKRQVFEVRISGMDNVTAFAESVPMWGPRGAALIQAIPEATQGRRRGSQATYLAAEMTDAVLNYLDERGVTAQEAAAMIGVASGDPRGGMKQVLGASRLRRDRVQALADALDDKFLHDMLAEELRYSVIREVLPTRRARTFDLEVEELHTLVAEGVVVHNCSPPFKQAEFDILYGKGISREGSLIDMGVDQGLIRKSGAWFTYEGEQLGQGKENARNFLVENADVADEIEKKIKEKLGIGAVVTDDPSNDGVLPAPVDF
Arbovirus anti repeat: further read-out of Arbovirus anti, marked with its call; inhibition, %; measured here: 10K subset replicate screen; many hits read low in the repeat;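 first of two repeat runs on a subset; 0% = infected and 100% = uninfected wells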
The depositor's hits bear a star; . = not tested or not shown.

SMILES | Mtb betalactam | YopH inh | Mtb H37Rv | Arbovirus anti | RecA splice inh | others
Clc1ccc(Cn2c(/C=C/c3ccco3)nc3ccccc32)cc1 | 6 | -33 | 8% | 5 | 20
O=C(O)/C=C/C(=O)Nc1ccc(NC(=O)c2ccccc2)c(Cl)c1 | 2 | . | -11% | 4 | 11
O=C(CSc1nnc2ccccn12)NC(=O)NC1CCCCC1 | -10 | -50 | -7% | 9 | -1.6
Cc1cc(Cl)ccc1OC(C)C(=O)NCCc1ccc2c(c1)OCCO2 (stereo not given) | -3 | -30 | -4% | 1 | 8.0
CCn1cc(CCCC(=O)NCc2ccc(OC)cc2)c2ccccc21 | 10 | . | . | . | -5.2
O=S(=O)(c1ccc(Cl)c(C(F)(F)F)c1)N1CCN(c2ccccn2)CC1 | -3 | . | 8% | 14 | 2.1
CCC(Sc1nc(C)cc(=O)[nH]1)C(=O)Nc1ccc(Cl)cn1 (stereo not given) | 4 | -32 | -3% | 3 | -0.9 | Arbovirus anti repeat=5
Cc1cc(-c2nc(-c3ccc(C(C)(C)C)cc3)no2)no1 | -9 | . | -2% | . | -5.2
O=C(NCCc1ccccc1)C1CCN(c2nc3ccccc3o2)CC1 | -3 | -16 | -1% | 11 | -1.4
Cc1nc(CCNC(=O)c2cc(COc3ccc(F)cc3Cl)on2)sc1C | 5 | . | 13% | . | 4.4
COc1ccc(CCN2CN(S(=O)(=O)c3ccc(C)cc3)c3nc4ccccc4nc32)cc1OC | 1 | -35 | -3% | 0 | -0.8
O=C(CN1C(=O)C2C3C=CC(C3)C2C1=O)OCC(=O)c1ccc([N+](=O)[O-])cc1 (stereo not given) | -2 | . | . | . | -8.7
C(=N\Nc1nc2ccccc2[nH]1)/c1ccc2ncccc2c1 | -7 | . | . | . | 0.7
O=C(Nc1ccc2c(c1)OCO2)c1cc(-c2ccncc2)nc2ccccc12 | 9 | . | -1% | -18 | 5.5
O=C(Nc1ccc2c(c1)OCO2)c1ccc(CN2CCOCC2)cc1 | -5 | 3 | -11% | -12 | 1.2 | Arbovirus anti repeat=-6
C=CCn1c2ccccc2c2nnc(SCCCn3c(=O)[nH]c4ccccc43)nc21 | . | 22 | 8% | -23 | .
COc1ccc(OC)c(N(CC(=O)N2CCOCC2)S(C)(=O)=O)c1 | -3 | . | . | . | -3.6
CC(C)(C)n1ncc2c(=O)n(CC(=O)NCc3ccccc3)cnc21 | 0 | -24 | 2% | -6 | -0.9
CCOC(=O)C(CC(=O)O)=C(c1ccccc1)c1ccccc1 | 2 | . | . | . | -1.1
C[C@@]12C(=O)N(c3cccc(F)c3)C(=O)N1[C@H](c1ccc(F)cc1)[C@@H]1C(=O)N(C3CCCCC3)C(=O)[C@@H]12 | -10 | . | . | . | -4.8
CS(=O)(=O)N1N=C(c2cccs2)CC1c1ccccc1O (stereo not given) | 1 | . | -1% | -5 | -3.1
O=C(CN1CCOCCOCCN(CC(=O)Nc2ccccc2)CCOCC1)Nc1ccccc1 | 3 | -47 | -9% | 4 | 0.1
COC(=O)c1cn(C)c2ccc(S(=O)(=O)N3CC(C)CC(C)C3)cc2c1=O (stereo not given) | -3 | -62 | -4% | -1 | 0.5
Cc1cc(C)n(CC(=O)NN)n1 | -6 | . | -5% | 3 | -0.6
CCCCNCc1cc(OCC)c(OCC)cc1Br | 1 | . | 2% | -4 | -5.9
COCCNC(=O)C1CC(=O)N(c2ccc(OC)cc2)C1c1ccc(OC)cc1 (stereo not given) | 3 | . | -3% | 3 | 1.6
COc1ccc(Cl)cc1NC(=S)NCCCN1CCCC1=O | -3 | . | 5% | 2 | -0.5
CN1/C(=C\C(=S)Nc2ccccc2)C(C)(C)c2ccccc21 | 29 | . | 1% | 3 | 7.6
Cc1ccccc1-n1c(=O)cc(N2CCCCCC2)[nH]c1=O | 1 | -25 | 2% | 4 | 0.6 | Arbovirus anti repeat=3
CC(O)CSc1nc2c(c(=O)[nH]c(=O)n2C)n1Cc1ccccc1Cl (stereo not given) | -2 | . | . | . | 2.6
CSc1sc(C(=O)NC(=O)NCc2ccncc2)c(C)c1-c1ccon1 | 63 | . | 16% | . | -0.5
O=c1c2c(-c3cccs3)csc2ncn1-c1ccccc1 | 44 | -3 | 5% | -20 | 1.9
Cc1ccn(-c2ccc([N+](=O)[O-])cc2)n1 | 5 | -33 | -4% | -4 | 0.1
CCOc1ccc(N2CC(C(=O)N3CC(C)OC(C)C3)CC2=O)cc1 (stereo not given) | -8 | . | . | . | -0.8
COc1cc(OC)c(S(=O)(=O)NCc2cccnc2)cc1NC(C)=O | -1 | . | 5% | -2 | -0.8
CCOC(=O)c1cc2c(ccn2C)n1CC(=O)Nc1ccc(F)cc1 | 1 | . | -5% | -8 | -1.2
CCNC(=S)NNC(=O)c1cc(-c2ccc(OC)cc2)nc2ccccc12 | 57 | -33 | 9% | -1 | 7.2
CCCCCc1nc(-c2nonc2N)no1 | 6 | -18 | -11% | 5 | -1.7
CC(C)CN(C(=O)c1cccc(S(=O)(=O)N2CCN(c3ccc(F)cc3)CC2)c1)C1CCS(=O)(=O)C1 (stereo not given) | -7 | . | . | . | -4.2
CC(C)c1nc(CNC(=O)CC2C(=O)NCCN2Cc2ccc(F)cc2Cl)cs1 (stereo not given) | -5 | . | . | . | -0.3
CC12CN(C(=O)c3ccco3)CC(c3ccccc3)(CN(C(=O)c3ccco3)C1)C2=O | -4 | 2 | 1% | 5 | -1.4
CCc1nc2cc(CC(=O)O)ccc2o1 | -2 | -41 | -6% | 9 | -12
CN1/C(=C\C=C2/C(=O)Oc3ccccc3C2=O)C(C)(C)c2ccccc21 | -6 | 1 | -5% | -8 | -2.0
CC1(c2ccccc2)NC(=O)N(CC(=O)N2CCOCC2)C1=O (stereo not given) | -5 | -41 | -11% | 3 | -0.4
C=CCN1C=C2C(=O)C(C)(OC(=O)C3CCCC3)C(=O)C(c3ccccc3)=C2C=C1CCCC(=O)OC (stereo not given) | -8 | . | 6% | . | 16
O=C(CSc1nc(=O)n(CCN2CCOCC2)c2c1CCCC2)Nc1cccc([N+](=O)[O-])c1 | 3 | . | . | . | 2.2
CNCCc1ccc(OC)c(OC)c1 | -3 | . | -6% | . | -2.1
Nc1nonc1-n1nnc(C(=O)N/N=C/c2ccccc2Cl)c1-c1ccc2c(c1)OCO2 | 3 | . | . | . | 1.3
COc1cc(NC(=O)C2CC3CCC2C3)c(OC)cc1Cl (stereo not given) | -6 | . | . | . | 7.7
Cc1noc(COc2ccccc2OCC(N)=O)c1Cl | -19 | -22 | 5% | 1 | -2.9
O=C(COc1cccc2c1CCNC2=O)Nc1cccc(F)c1 | -11 | . | . | . | 1.3
CCOC(=O)c1c(C)nc(C)c2c(=O)oc3ccccc3c12 | -4 | . | 2% | 2 | 0.2
O=C(Nc1ccc(F)c(F)c1)C1CCCN(S(=O)(=O)c2cccc3nonc23)C1 (stereo not given) | 4 | . | . | . | -1.7
CCOC(=O)c1cc2occc2n1CCCN1C(=O)c2ccccc2C1=O | 8 | 11 | -1% | -2 | 4.3
COc1ccc(OC)c(C(=O)COC(=O)CN2C(=O)NC3(CCCCC3C)C2=O)c1 (stereo not given) | 0 | . | . | . | 3.8
COc1ccccc1-n1c(/C=C/c2ccc(O)cc2)nc2ccccc2c1=O | 1 | . | . | . | 4.0
CCn1c(CCNC(=O)c2cccs2)nnc1SCC(=O)Nc1nc(-c2ccccc2)cs1 | 39 | -24 | 0% | -7 | .
CC1C/C(=C\c2ccccc2[N+](=O)[O-])c2nc3ccccc3c(C(=O)O)c2C1 (stereo not given) | 0 | . | . | . | 4.9
CNC(=O)CSc1nc2cc(S(=O)(=O)Nc3ccccc3OC)ccc2o1 | 0 | . | . | . | -7.8
NC(=O)C1CCN(C(=S)NC2CC3C=CC2C3)CC1 (stereo not given) | -7 | . | -6% | . | .

2 entries picked at random from those above, as already listed:
SMILES | Mtb betalactam | YopH inh | Mtb H37Rv | Arbovirus anti | RecA splice inh | others
Cc1cc(-c2nc(-c3ccc(C(C)(C)C)cc3)no2)no1 | -9 | . | -2% | . | -5.2
C=CCN1C=C2C(=O)C(C)(OC(=O)C3CCCC3)C(=O)C(c3ccccc3)=C2C=C1CCCC(=O)OC (stereo not given) | -8 | . | 6% | . | 16

Among those listed so far, 4 have a thiophene ring, fused or not:
SMILES | Mtb betalactam | YopH inh | Mtb H37Rv | Arbovirus anti | RecA splice inh | others
CS(=O)(=O)N1N=C(c2cccs2)CC1c1ccccc1O (stereo not given) | 1 | . | -1% | -5 | -3.1
CSc1sc(C(=O)NC(=O)NCc2ccncc2)c(C)c1-c1ccon1 | 63 | . | 16% | . | -0.5
O=c1c2c(-c3cccs3)csc2ncn1-c1ccccc1 | 44 | -3 | 5% | -20 | 1.9
CCn1c(CCNC(=O)c2cccs2)nnc1SCC(=O)Nc1nc(-c2ccccc2)cs1 | 39 | -24 | 0% | -7 | .

Sorted by heavy-atom count (lowest first): 3 of the compounds above
SMILES | Mtb betalactam | YopH inh | Mtb H37Rv | Arbovirus anti | RecA splice inh | others
CNCCc1ccc(OC)c(OC)c1 | -3 | . | -6% | . | -2.1
O=C(COc1cccc2c1CCNC2=O)Nc1cccc(F)c1 | -11 | . | . | . | 1.3
C=CCN1C=C2C(=O)C(C)(OC(=O)C3CCCC3)C(=O)C(c3ccccc3)=C2C=C1CCCC(=O)OC (stereo not given) | -8 | . | 6% | . | 16

Further compounds follow.
SMILES | Mtb betalactam | YopH inh | Mtb H37Rv | Arbovirus anti | RecA splice inh | others
COc1ccc(-n2c(C)cc(/C=C(\C#N)C(=O)NCc3ccco3)c2C)cc1 | 4 | -43 | 6% | -14 | 1.3
COc1cccc(NC(=S)N2CCCN(Cc3ccc(F)cc3)C2)c1 | -7 | . | -4% | 9 | 0.2
Nc1ccccc1SCC(=O)Nc1nc(-c2ccccc2)cs1 | 91 | . | >100µM* | -29 | 2.5
COc1ccc(N2CCN(C(=O)c3ccc4ccccc4n3)CC2)cc1 | 88 | . | 8% | 2 | 1.4
CNC(=O)COC(=O)c1cc(-c2ccc(OC)cc2)nc2ccccc12 | 7 | . | 8% | 3 | -2.4
Cn1c(Cl)cnc1C(O)c1ccccc1 (stereo not given) | -2 | -32 | -4% | 3 | -1.1
Clc1ccc2nc(-c3ccc(Br)s3)cn2c1 | 64 | -17 | -3% | -2 | -0.1
COc1cc(C#N)c(N=C(SCC#N)N2CCOCC2)cc1OC | -11 | . | 5% | 7 | -2.8
CC(C)Oc1ccc(C(=O)NCC(=O)OCC(=O)N(C)Cc2cccs2)cc1 | -3 | . | -9% | 16 | -6.2
Cc1nonc1CC(=O)NC1CC(C)(C)Cc2c1cnn2-c1ccc(F)cc1 (stereo not given) | -12 | . | . | . | -1.1
COc1ccc(-c2ccc(C#N)c(OC)n2)cc1 | 0 | . | 1% | -10 | 5.2
CC1Cc2ccccc2N1C(=O)CN1C(=O)CN(C)C(=O)c2ccccc21 (stereo not given) | -2 | -21 | -23% | -1 | -0.9
O=C(c1ccc(C(=O)N2CCOCC2)nc1)N1CCOCC1 | -3 | -2 | -8% | 1 | 1.0
COCCn1c(C)cc(C(=O)COC(=O)c2ccc3ncsc3c2)c1C | 90 | -6 | 30% | 0 | 3.3
CCOC(=O)N1CCN(S(=O)(=O)c2ccc(C(=O)Nc3ccc(F)cc3F)cc2)CC1 | 5 | -8 | . | -6 | 1.3
CN(Cc1cnn(C)c1)C(=O)c1cc(COc2c(F)cccc2F)on1 | 2 | . | -3% | -2 | 2.4
CC(C)(C)n1ncc2c(=O)n(CC(=O)OCc3ccccc3)cnc21 | -5 | -39 | 3% | 6 | -3.0
Cc1ccc2c(c1)N(C)/C(=C/c1cccc[n+]1C)S2 | 4 | . | . | . | 0.6
COc1ccc(/C=N/c2c(-c3ccc(OC)cc3)nc3n2CCS3)cc1 | -1 | -11 | 0% | -17 | -2.8
Cc1cccnc1NS(=O)(=O)c1cccc([N+](=O)[O-])c1 | -6 | -37 | -2% | -5 | -0.2
CCC(=O)Nc1ccc(NC(=O)c2ccco2)c(OC)c1 | -5 | -17 | . | -4 | -1.7
COc1cc(NC(=O)CSc2nnnn2Cc2ccc3c(c2)OCO3)cc(OC)c1 | 0 | -7 | . | -9 | -2.5

An excerpt, so the mix of outcomes need not match the whole.
